From PubChem
Sa growth 42C = blocks Staphylococcus aureus growth; S. aureus RN4220 growth, OD600, 20 h, 42 °C; stronger effect = lower value; hit rate 0.53% among 170,000; AID 720641; relative growth, % (no concentration beside the values);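 active = growth at 42 °C up to 50% and 20 or more points under that at 30 °C, or under 10% at both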;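 note: 300 nL library stock went into each well; scaled to the means of positive and negative controls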
GIV-Gai inh = inhibitors of GIV GBA-motif binding to rat Galpha-i3; P08753; Galpha-i3/FITC-GIV peptide fluorescence polarization, 90 min; stronger effect = lower value; scaled: aluminum fluoride 0%, vehicle 100%; percent of control (FP), % (concentration not given with the values); hit rate 0.42% among 210,000; AID 1224905;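 active = replicate mean at 85% of control or lower, very high polarization wells dropped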;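 note: wells of about 15 µL received 100 nL stock; the first replicate is given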
Target sequence (P08753 whole entry, looked up): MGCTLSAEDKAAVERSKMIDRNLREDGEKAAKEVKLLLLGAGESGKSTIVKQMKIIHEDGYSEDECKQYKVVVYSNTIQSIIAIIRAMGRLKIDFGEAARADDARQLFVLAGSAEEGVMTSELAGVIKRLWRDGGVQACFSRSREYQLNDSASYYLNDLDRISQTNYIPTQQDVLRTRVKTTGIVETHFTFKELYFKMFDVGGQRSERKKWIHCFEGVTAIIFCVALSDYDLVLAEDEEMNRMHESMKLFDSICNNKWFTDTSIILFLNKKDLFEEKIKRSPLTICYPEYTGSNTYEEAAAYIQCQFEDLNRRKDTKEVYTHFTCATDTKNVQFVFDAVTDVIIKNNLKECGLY
HCMV NEC inh = cytomegalovirus nuclear egress complex inhibition; HTRF UL50-UL53 interaction, normalized percent inhibition; inhibition, % (concentration not given with the values); hit rate 0.15% among 190,000; AID 1918969;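 active = both replicates at 50% or more, plus weaker picks with an unusually low signal ratio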;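 note: stock transfer was 100 nL into about 20 µL; 0% = negative control wells and 100% = wells with untagged competitor protein; inactives centre near -12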
Sa growth 42C second temp = also measured in Sa growth 42C; calls as there; relative growth, %; measured here: growth at 30 °C;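 optical density after 20 h as mean of two plates; 100% = untreated growth and lower means inhibition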
* = called active by the depositor; . = no result given; & = joins results of further samples. No enrichment for hits (roughly 0.83% active in at least one column).

SMILES	Sa growth 42C	Sa growth 42C second temp	GIV-Gai inh	HCMV NEC inh
Cc1cc(-c2ccccc2)n2nc(N)nc2n1	96	108	99	8
COc1ccc(Cl)cc1NC(=O)c1c(NCc2cccn2C)sc2c1CCCC2	88	87	99	-21
Cc1cc(C)n(-c2nnc(Nc3ccc(C(C)C)cc3)c3ccccc23)n1	82	78	102	.
COc1ccc(CNCc2c(C(=O)O)c(C)n(Cc3ccccc3C)c2C)c(OC)c1	88	79	109	0
CCc1ccc(Nc2cc(C(=O)O)c3ccccc3n2)cc1	91	90	100	.
O=C(COC(=O)CC1CCCC1)Nc1cc(C(F)(F)F)ccc1N1CCOCC1	108	97	.	-24
O=C1CC(c2ccc(Cl)cc2)c2cc3c(cc2N1)OCCO3 (stereo unspecified)	103	84	104	-14
O=c1c(N2CCN(c3ccccc3)CC2)csc2ccccc12	106	65	110	-51
CC(C)c1ccc(NC(=O)CN2C(=O)CCc3cc(S(=O)(=O)N4CCCC4)ccc32)cc1	.	.	109	-5
O=C(NCCSc1ccccn1)c1cccc(Cl)c1	85	74	103	-13
COc1cccc([C@H]2C(C#N)=C(N)C(C#N)(C#N)C3=CCC(C)C[C@@H]32)c1 (stereo partly specified)	53	25	.	-7
O=C(Nc1ccccc1-c1nc2ccccc2s1)c1ccc(-c2ccccc2)cc1	.	.	106	-10
CCOC(=O)c1sc2nc3c(cc2c1N)COC(C)(C)C3	104	97	104	-38
CN1/C(=C\C(=O)C(F)F)C(C)(C)c2ccccc21	94	103	103	-2
Clc1ccc(Cc2nc3nc4c(c(NCc5ccc6c(c5)OCO6)n3n2)CCCC4)cc1	.	.	100	-1
O=C(O)CC12CC3CC(CC(O)(C3)C1)C2	113	73	.	-39
COc1cccc2onc(N)c12	101	83	113	-3
Cc1ccccc1N1CC(C(=O)N2CC(C)CC(C)C2)CC1=O (stereo unspecified)	97	80	109	.
CCOC(=O)/C=c1\s/c(=C\c2ccc(OC)cc2)c(=O)n1C	102	95	.	-6
O=C(NC1CCCC1)c1ccc(CSc2nc3ccncc3n2Cc2cccc(F)c2)cc1	105	93	102	-14
O=C(CC(O)(c1ccccc1)c1ccccc1)Nc1ccccc1	97	88	.	-3
C/C(=N\OCC(=O)Nc1nc2ccccc2s1)c1cccs1	96	71	101	-34
C=C(C)c1cccc(C(C)(C)NC(=O)N2CCC(C)CC2)c1	100	92	103	.
CCc1ccc(C(=O)N2CCN(c3ccc(N)cc3)CC2)cc1	103	91	103	-14
Cc1cc(C)cc(NC(=O)N2CCOc3ccc(C)cc32)c1	88	90	99	.

The list goes on.
SMILES	Sa growth 42C	Sa growth 42C second temp	GIV-Gai inh	HCMV NEC inh
CCOC(=O)c1cc(-c2csc(Nc3ccccc3)n2)on1	100	67	100	-6
O=S(=O)(c1cnc[nH]1)N1CCN(c2ccc(N3CCOCC3)nn2)CC1	.	.	101	-20
COCc1cc(C)nc2sc3c(c12)NCN(c1ccc(C)c(Cl)c1)C3=O	.	.	96	-47
C=CCN(CC=C)C(=O)c1ccc(I)cc1	138	83	.	-38
CCCNC(=O)c1ccc(Cn2c(SCC(=O)NC(C)C)nc3ccccc3c2=O)cc1	97	89	97	.
CN(CCOc1ccc(CC2SC(=O)NC2=O)cc1)c1ccccn1 (stereo unspecified)	98&90&97	92&80&88	.	-28&-1&-14&-14&-15&-15&-24&-36
COc1ccc(-c2cc(C(F)(F)F)nc(SCC(=O)Nc3ccc(C(C)=O)cc3)n2)cc1	90	89	104	-5
N#Cc1ccc(-c2c(NC(=O)NS(=O)(=O)c3ccccc3Cl)oc(-c3ccco3)c2C#N)cc1	97	94	120	-10
O=C(Cn1cc(/C=N/NC(=S)Nc2ccccc2)c2ccccc21)NCc1ccco1	117	72	102	-14
CCOC(=O)c1oc2c(CN3CCCCC3C)c(O)ccc2c(=O)c1-c1ccc(OC)c(OC)c1 (stereo unspecified)	95	87	105	-51
CCS(=O)(=O)N1CCN(Cc2noc(CCC(=O)N3CCCCC3)n2)CC1	93	98	104	5
COc1ccc2[nH]c3c(=O)n(CC(=O)NC4CCCCCC4)c(=S)[nH]c3c2c1	107	84	97	.
Oc1ccccc1N=Cc1ccc2ncccc2c1	100	49	.	-79
Cc1ccccc1CN1C(=O)c2cc3cc(Cl)ccc3n2C(=O)C1(C)C(=O)NC1CCCC1 (stereo unspecified)	.	.	97	-11
CCN(CC)S(=O)(=O)c1ccc2c(c1)N(CC(=O)NC(C)(C)C)C(=O)CS2	.	.	102	6
O=C(CCC(=O)n1ncc2ccc(Cl)cc21)NCc1cccnc1	82	77	104	-22
CC1CC(=O)N(CC(N)=O)c2ccccc2S1 (stereo unspecified)	105	97	104&105	3&-1
COC(=O)c1ccc2c(=O)n(CC3CCCO3)c(SCC(=O)Nc3ccccc3Cl)nc2c1 (stereo unspecified)	99	89	102	.
COc1ccc(Sc2nncc3nnn(-c4ccc(Cl)cc4)c23)cc1	102	100	108	26
COc1ccc(OCC(=O)Nc2onc3c2CC(C)CC3)cc1 (stereo unspecified)	.	.	100	-20
C[C@]12CC[C@@H]3c4ccc(O)cc4C[C@@H](CCCCCCCCCS(=O)CCCC(F)(F)C(F)(F)F)[C@H]3[C@@H]1CC[C@@H]2O (stereo partly specified)	99	101	100&102	-50&-26
CCc1nc(C)cn1S(=O)(=O)c1ccc(Cl)c(Cl)c1OC	103	88	103	4
CC(=O)Nc1ccccc1OCc1cnc(Cl)s1	.	.	101	-6
CC(C)c1ccc(NC(=O)COC(=O)c2ccc[nH]c2=O)cc1	94	83	.	-10
Cc1cccc(NC(=O)c2cc3c([nH]c2=O)CCCC3=O)n1	100	84	106	-12

Later entries.
SMILES	Sa growth 42C	Sa growth 42C second temp	GIV-Gai inh	HCMV NEC inh
Cc1cccc(CCn2c(=O)c3ccccc3n(Cc3cccc(F)c3)c2=O)c1	108	89	102	-12
Cc1ccc(C(=O)N2CCCCC2)cc1NC(=O)c1nsc2ccccc12	94	88	107	.
O=C(NC12CCC(O)C(SC1)C2O)c1ccccc1 (stereo unspecified)	89	97	91	-10
Cc1cccc(C)c1NC(=O)CN1C(=O)c2ccccc2Sc2ncccc21	114	104	99	.
CCOc1ccc(C(=O)NCc2nc(-c3ccc(Cl)cc3)no2)cc1OCC	109	76	101	-1
Cc1cc(C)c2sc(=NC(=O)CN3C(=O)CCC3=O)n(C)c2c1	88	82	102	-42
O=C1c2ccccc2C(=O)N1CCN1CCN(c2ncc(C(F)(F)F)cc2Cl)CC1	102	96	.	-13
COC(=O)c1cc(C)sc1NC(=S)NC(C)c1cn(C)nc1C (stereo unspecified)	97	96	104	-13
CCOC(=O)c1[nH]c(C)c(C(=O)C(C)C)c1C	112	80	.	-6
COc1cc(OC)cc(-c2nc(=S)n3ccsc3n2)c1	88	94	.	-20
O=C(Cn1c(=O)n(Cc2ccccc2)c(=O)c2ncccc21)N1CCCc2ccccc21	.	.	105	-12
O=C(COc1ccccc1Cl)OCc1cc(=O)n2nc(-c3cccs3)sc2n1	92	90	112	.
O=C1OCCC1(CCO)c1ccccc1 (stereo unspecified)	104	88	98	-12
CCOC(=O)c1cnn(C(=O)Cc2ccsc2)c1N	105	88	102	21
Cc1oc(C(C)(C)C)cc1C(=O)NCCO	108	69	101	-12
CCc1nonc1NC(=O)c1oc2ccc(Br)cc2c1C	91	90	97	-24
COc1ccccc1OCC(=N)N	73	96	105	-5
Clc1ccc(-c2nnc(C(c3ccccc3)N3CCc4ccccc4C3)o2)cc1 (stereo unspecified)	.	.	105	-23
Cc1c(C2=CCN(S(=O)(=O)c3ccccc3)CC2)c2ccccc2n1Cc1ccccc1	.	.	104	-36
Cc1ccc(Cn2c(N)nc3ccccc32)cc1	99	90	.	19
O=C1CCCN1C(=O)CSc1nc2ccccc2n1-c1ccccc1	96	101	.	0
N#Cc1ccc(Oc2c(Cl)cncc2Cl)cc1	96	88	101	-15
COC(=O)c1sccc1NC(=S)Nc1ccccc1	64	77	118	.
CC(=O)Nc1ccc2c(c1)CN(C1CCCCC1)CO2	91	88	104	.
COC(=O)c1c(C)oc2ccc(OCc3ccccc3C)cc12	97	90	99	.

The listing continues:
SMILES	Sa growth 42C	Sa growth 42C second temp	GIV-Gai inh	HCMV NEC inh
CCCn1c(=O)c2ccccc2n2c(SCC(=O)Nc3ccc(C)c(C)c3)nnc12	.	.	102	2
CC(C)(CCl)Nc1nc2ccccc2s1	76	86	.	-62
N#Cc1ccc(COC(=O)CCc2nnc(-c3ccccc3)o2)cc1	89	90	.	-13
O=C(COc1ccccc1)NCc1nc2ccccc2n1Cc1ccc(Cl)cc1	99	82	102	.
O=C(COc1ccccc1Br)N1CCCCCC1	79	86	101	-18
CCn1nnc2c(N(Cc3ccccc3)Cc3ccccc3)ncnc21	52	48	97	-24
COc1cc(=O)n(-c2ccc(C)cc2)nc1C(=O)NC(c1ccccc1)c1ccccc1	.	.	108	12
O=C(COc1ncnc2sc3c(c12)CCCC3)NC1CCS(=O)(=O)C1 (stereo unspecified)	99	95	.	-9
CCN=C1NN=C(c2cc(C)n(Cc3ccco3)c2C)CS1	107	84	.	-16
O=C(NCc1ccccn1)c1ccc(NC(=O)c2nnc(COc3ccc(Cl)cc3)s2)cc1	.	.	108	9
CCOc1nc2ccccc2nc1NS(=O)(=O)c1ccccc1	94	97	.	12
c1ccc(N2CCN(CCc3nnc4n3CCCCC4)CC2)cc1	93	73	.	-32
O=C1CSC(=S)N1CCCCCCN1C(=O)CSC1=S	90	76	103	-34
COc1ccc(CN(C(=O)Cc2coc3ccc(C)cc23)C2CCS(=O)(=O)C2)cc1 (stereo unspecified)	107	80	105	-10
CCN(CC)C(=O)c1cc(-c2cc(C(=O)N(CC)CC)c3ccccc3n2)nc2ccccc12	91	92	96	.
Cc1ccc(-c2nnc(SCC(=O)NC(C)(C)C)nc2-c2ccc(C)cc2)cc1	91	84	103	.
CCOC(=O)CC(=O)NC1(Cc2ccc(O)cc2)CCCCC1	96	83	99	-17
CNC(=O)c1nn(-c2ccc(F)cc2)nc1CO	.	.	111	3
CCCNC(=O)c1ccc2c(c1)c(C)c(C)n2CC	92	86	127	-31
COc1ccc(OC)c(S(=O)(=O)N2CCc3cc(OC)c(OC)cc3C2)c1	94	95	99	-18
COc1ccc2c(C)nc(NC3=NC(C)(C)CC(C)=N3)nc2c1	71	70	116	8
CCCCNC(=O)CC1NCCNC1=O (stereo unspecified)	99	92	101	-20
Cc1ccc(-n2c(=O)c3ccc(C(=O)NCc4ccco4)cc3n(Cc3ccccc3Cl)c2=O)cc1	108	95	105	-10
CCOc1ccc(OCC)c(Nc2nc3ccc(C(=O)c4ccccc4)cc3n3cnnc23)c1	91	97	106	.
COc1cccc(CO)c1OCc1ccccc1F	99	96	101	-9

Some of the entries so far, comma-delimited:
canonical_smiles,Sa growth 42C,Sa growth 42C second temp,GIV-Gai inh,HCMV NEC inh
O=C(COc1ccccc1)NCc1nc2ccccc2n1Cc1ccc(Cl)cc1,99,82,102,.
O=C(COc1ccccc1Br)N1CCCCCC1,79,86,101,-18

One compound at a time, as listed above.
Results for `CNC(=O)c1nn(-c2ccc(F)cc2)nc1CO` = Sa growth 42C = .; Sa growth 42C second temp = .; GIV-Gai inh = 111; HCMV NEC inh = 3
Results for `O=C1CSC(=S)N1CCCCCCN1C(=O)CSC1=S` = Sa growth 42C = 90; Sa growth 42C second temp = 76; GIV-Gai inh = 103; HCMV NEC inh = -34

Continuation.
SMILES	Sa growth 42C	Sa growth 42C second temp	GIV-Gai inh	HCMV NEC inh
Fc1ccc(CNc2ccc(N3CCCC3)cc2)cc1	113	84	104	-12
Cc1ccc(S(=O)(=O)N(C)CC(=O)Nc2cccnc2)cc1	108	98	108	-6
Cc1ccc(S(=O)(=O)c2nc(S(=O)(=O)c3ccc(C)cc3)c(NCCCOC(C)C)s2)cc1	80	90	98	-4
CCOC(=O)c1cccc(NC(=O)C2=C(C)C(=O)OC23CCCCC3)c1	107	90	106	-19
O=C(NCc1ccccc1)c1ccc2c(c1)CCN2S(=O)(=O)c1ccccc1	109	98	103	-9
O=C(O)C1CC=CCC1C(=O)Nc1ccccc1F (stereo unspecified)	.	.	95	-16
Cc1ccc2nc(N3CCN(Cc4nnnn4C4CCCC4)CC3)c(C#N)cc2c1	100	92	104	-25
COc1ccc(CNC(=O)CSc2nc3cc4c(cc3cc2C#N)OCCO4)cc1	90	84	94	29
CCOC(=O)c1cnc(SCC(=O)c2ccc(-c3ccccc3)cc2)nc1N	105	100	101	.
C=CCNS(=O)(=O)c1c(C)[nH]c(=O)[nH]c1=O	.	.	101	-10
Cc1ccc(OCCN2CCN(C(=O)CSc3nc4ccccc4nc3N3CCCC3)CC2)cc1	112	104	106	0
Cc1ccc(S(=O)(=O)c2nc(-c3ccco3)oc2SC(C)C)cc1	97	78	102	-3
CCOc1ccc(S(=O)(=O)Nc2ccc3oc(C)c(C(=O)OC(C)C)c3c2)cc1	103	85	103	.

5 neighbouring records from above, for reference:
SMILES	Sa growth 42C	Sa growth 42C second temp	GIV-Gai inh	HCMV NEC inh
CCOC(=O)c1cnc(SCC(=O)c2ccc(-c3ccccc3)cc2)nc1N	105	100	101	.
C=CCNS(=O)(=O)c1c(C)[nH]c(=O)[nH]c1=O	.	.	101	-10
Cc1ccc(OCCN2CCN(C(=O)CSc3nc4ccccc4nc3N3CCCC3)CC2)cc1	112	104	106	0
Cc1ccc(S(=O)(=O)c2nc(-c3ccco3)oc2SC(C)C)cc1	97	78	102	-3
CCOc1ccc(S(=O)(=O)Nc2ccc3oc(C)c(C(=O)OC(C)C)c3c2)cc1	103	85	103	.
